NS1 inh: influenza NS1 inhibition; S. cerevisiae slowed by influenza A NS1, growth recovery by OD600; Potency, µM (series often up to 46.1 µM), for the others: top-dose activity, positive = more growth; actives 0.4% (n = 270,000); also: actives are rising curves; nearly all actives have a fitted effect of over 50% in size
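A cell-based growth assay was used: compounds that relieve NS1-induced slow growth of budding yeast raise OD600. Assay medium was yeast nitrogen base with ammonium sulphate and -URA supplement, pH 6.0, with 2% galactose.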
Cruzain noTriton: cruzain (T. cruzi) inhibition without detergent. P25779. purified cruzain, Z-FR-AMC fluorescence, no detergent. Potency, µM, without a hit: max response, negative = inhibition, actives largely listed as inhibitors. actives 2.3% (n = 200,000). AID 1476; active = well fitted curve in the direction sought with a large enough effect; inconclusive = small, poorly fitted or top-dose-only effect, or another doubt; inactive = no such curve, though single readings can be large; an effect the other way counts as inactive or inconclusive;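 also: plate controls were enzyme without inhibitor for no effect and buffer without enzyme for full effect; nearly all actives have a fitted effect of over 40% in size; top concentration of the series not given in the record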
Target sequence (P25779 123-467 limits assumed): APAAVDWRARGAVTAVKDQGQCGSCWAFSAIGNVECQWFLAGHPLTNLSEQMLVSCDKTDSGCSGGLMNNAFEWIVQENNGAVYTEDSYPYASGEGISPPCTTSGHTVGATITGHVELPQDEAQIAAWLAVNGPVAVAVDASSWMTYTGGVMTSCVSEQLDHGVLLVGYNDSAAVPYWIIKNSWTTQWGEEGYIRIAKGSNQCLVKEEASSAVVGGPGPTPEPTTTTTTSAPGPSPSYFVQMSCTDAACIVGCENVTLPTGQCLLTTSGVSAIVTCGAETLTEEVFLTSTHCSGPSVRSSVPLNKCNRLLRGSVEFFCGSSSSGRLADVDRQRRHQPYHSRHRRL
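Detergent-free condition (0.00005% Triton X-100) in acetate buffer pH 5.5 with DTT. 1.5 nM enzyme and compound were pre-mixed 15 min, then 2 uM Z-FR-AMC substrate added; reaction progress from fluorescence change between first and third reads (60 s).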
RE007 growth inh: less growth of the S. pombe RE007 Vpr strain. S. pombe RE007 Vpr strain, BacTiter-Glo ATP luminescence, 24 h; control for the full effect not named in the record. Potency, µM (top dose mostly 92.2 µM), inactives show at the highest dose activity change, negative = less growth. actives 0.21% (n = 360,000); active = well fitted falling curve with a large enough effect; inconclusive = small, poorly fitted or top-dose-only effect; inactive = no such curve, though single readings can be large or run the other way;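 also: % is scaled to controls: 0 for no effect and ±100 for the full control effect; nearly all actives have a fitted effect of over 50% in size; the assay follows cell death caused by Vpr and the record does not say whether a fall means rescue or toxicity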
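Fission yeast strain RE007, carrying one chromosomally integrated HIV-1 vpr copy, was seeded at OD 0.01 in PMG+AL medium with 23 nL pinned compound. After 24 h at 30 °C and 99% humidity, viability was read by BacTiter-Glo luminescence.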
Marburg entry inh: blocks Marburg virus binding to or entry into cells; Potency, µM (highest dose often 37.8 µM), without a hit: at the highest dose activity change, negative = inhibition, actives largely listed as inhibitors; actives 1.8% (n = 300,000); Marburg virus pseudotyped entry inhibition, cell reporter; control for the full effect not named in the record; about a third of the inactives were read at about 46 µM; AID 540276; active = well fitted inhibition curve with a large enough effect; inconclusive = small, poorly fitted or top-dose-only effect, or effect the other way; inactive = flat fitted curve, though single readings scatter; tested in HEK293 cells; about a fifth of its hits are not listed in these tables; also: % is scaled to controls: 0 for no effect and ±100 for the full control effect; luciferase read-out
SARS PLP yeast: SARS-CoV PLP inhibition in yeast | S. cerevisiae expressing SARS-CoV PLpro, growth rescue; control for the full effect not named in the record | Potency, µM (highest dose often 32.9 µM), inactives show at the highest dose activity, positive = growth rescue | actives 0.19% (n = 330,000) | AID 485353; also: 0% is about no effect; nearly all actives have a fitted effect of over 55% in size; growth read by luminescence after 48 h
2A StopGo: FMDV 2A StopGo reporter, luciferase signal. actives 1.2% (n = 410,000). AID 1159524. human cells with a luciferase reporter of 2A StopGo recoding; control for the full effect not named in the record. Potency, µM (top dose mostly 57.9 µM), without a hit: top-dose signal change, negative = less light; active = well fitted falling curve with a large enough effect; inconclusive = small, poorly fitted or top-dose-only effect; inactive = no such curve, though single readings can be large or run the other way; tested in HEK293T cells; also: % is scaled to controls: 0 for no effect and ±100 for the full control effect; nearly all actives have a fitted effect of over 45% in size; luciferase light after 4 h
LASV entry inh: inhibitors of Lassa virus binding or cell entry. Lassa virus pseudotype entry inhibition, cell reporter; control for the full effect not named in the record. Potency, µM (highest dose often 37.9 µM), without a hit: top-dose activity change, negative = inhibition, hits mostly inhibitors. actives 1.2% (n = 300,000). AID 540256; active means well fitted inhibition curve with a large enough effect; inconclusive means small, poorly fitted or top-dose-only effect, or effect the other way; inactive means flat fitted curve, though single readings scatter; tested in HEK293 cells; also: % is scaled to controls: 0 for no effect and ±100 for the full control effect; nearly all actives have a fitted effect of over 50% in size; luciferase read-out
Cruzain Triton: cruzain (T. cruzi) inhibition with detergent. actives 0.43% (n = 200,000). purified cruzain, Z-FR-AMC fluorescence, 0.01% Triton. Potency, µM, without a hit: max response, negative = inhibition, usual class: inhibitors. AID 1478; active = well fitted curve in the direction sought with a large enough effect; inconclusive = small, poorly fitted or top-dose-only effect, or another doubt; inactive = no such curve, though single readings can be large; an effect the other way counts as inactive or inconclusive;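 also: plate controls were neutral wells for no effect and buffer without enzyme for full effect; nearly all actives have a fitted effect of over 40% in size; top concentration of the series not given in the record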
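Cysteine protease activity tested under reducing, mildly acidic conditions (100 mM sodium acetate pH 5.5, 5 mM DTT) plus 0.01% Triton X-100. Cruzain 1.5 nM; substrate Z-FR-AMC 2 uM; 15 min compound preincubation at room temperature.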
Starred values were filed as active, the others as inactive; ? = inconclusive; . = no result given; & = joins results of further samples; [ ] = dose if it differs, or a comment. Unless noted, calls follow the shape of the dose curve; as a rule, active means well fitted rising curve with a large enough effect; inconclusive means small, poorly fitted or top-dose-only effect; inactive means no such curve, though single readings can be large or run the other way. Potency is read from the fitted curve at half-maximal effect. Compounds were not picked by outcome (roughly 4.8% active in at least one column).

compound | LASV entry inh | 2A StopGo | Cruzain noTriton | Marburg entry inh | SARS PLP yeast | Cruzain Triton | RE007 growth inh | NS1 inh
O=C(CN1CCOCC1)Nc1nc(-c2ccccc2Cl)cs1 | . | -30% | . | . | -1% | . | 10% | -2%
O=C(NNC(=O)C1CCN(S(=O)(=O)c2ccc(Cl)cc2)CC1)c1ccccc1 | -5% | -15% | -12% | ? | -1% | 0.4% | -16% | ?
CCCc1nnc(NC(=O)c2c(O)c3cccc4c3n(c2=O)CC4)s1 | 0% | -32% | ? | -5% | -10% | -1.3% | 11% | 5%
NC(=O)CN1C(=O)C2(SCC(=O)N2c2cccc(F)c2)c2ccccc21 (stereo not given) | 0%[46.1 µM] | -10% | 3% | . | . | -0.7% | . | .
Cc1ccc(C(=O)N(Cc2ccc(N(C)C)cc2)Cc2ccco2)cc1 | ? | 0% | -21% | 2%[46.1 µM] | . | -8.8% | . | .
COC(=O)c1cc(S(=O)(=O)NCCN2CCOCC2)cn1C | . | 3% | . | . | 2% | . | 6% | -10%
CCNC(=O)c1ccc(C)c(-n2c(C)nc3cccnc32)c1 | 18%[46.1 µM] | 3% | 2% | . | . | -3.3% | . | .
CCN(CC)C(=O)c1sc(NC(=O)c2ccc(OC)c([N+](=O)[O-])c2)c(C#N)c1C | . | . | -12% | . | -22% | 1.3% | . | 4%
Cc1ccc(C(=O)NC(=S)Nc2cccc3nsnc23)cc1 | ? | 27% | 2% | 6% | 5% | 3.7% | -11% | -3%
Cc1nn(C)cc1S(=O)(=O)Nc1ccc2c(c1)OCCO2 | -3% | -17% | . | 0%[46.1 µM] | 0% | . | 0% | 0%
Nc1nnc(SCCCC(=O)c2ccccc2)s1 | . | 7% | 2% | 2% | 25% | -0.3% | 3% | -10%
CCN1CCCC1CNC(=O)Cn1nc(C)n2c(cc3cc(F)ccc32)c1=O (stereo not given) | . | 3% | . | . | 4% | . | -19% | 1%
CCCCc1ccc(NS(=O)(=O)c2cc3c4c(c2)CC(=O)N4CCC3)cc1 | 0%[46.1 µM] | -16% | 22% | . | . | -15% | . | .
COc1cccc(NC(=O)CN(C)C(=O)/C=C/c2cn(Cc3ccccc3)nc2-c2cccnc2)c1 | -16% | 0% | . | -3%[46.1 µM] | 4% | . | -7% | .
Cc1nc(-c2ccc(F)cc2)c(CC(=O)Nc2cccc(S(=O)(=O)N3CCOCC3)c2)s1 | -5% | 10% | . | 3% | 2% | . | 6% | .
COC(=O)c1ccc(=O)c2nc3/c(=C/O)c(O)cc(=O)c3[nH]c12 | . | -23% | . | . | 3.2µM* | . | 17% | 1%
CC(C)Cc1nc(SCC(=O)NCC2CCCO2)c2c(=O)n(C)c(=O)n(C)c2n1 (stereo not given) | . | -5% | . | . | -6% | . | 6% | 4%
COc1ccc(Nc2nc3ccccc3n3c(N)nnc23)cc1 | -1%[46.1 µM] | -1% | -2% | ? | . | -5.0% | . | .
CC(C)c1nnc(SCC(=O)NC(C)(C)C)n1C | 0%[46.1 µM] | 5% | . | -1%[46.1 µM] | -1% | . | 9% | 1%
CCOC(=O)c1cc(-c2ccccc2)sc1NC(=O)C(C)C | 16% | -10% | 4% | 7% | 20% | -14% | -12% | -3%
CCc1ccc2oc(-c3ccc(C)c(NC(=O)Cc4ccccc4)c3)nc2c1 | ? | 33%[activator] | 20% | . | . | 2.0% | . | .
O=C(CSc1ncccn1)N1CCCc2ccccc21 | 5% | 8% | . | 22%[46.1 µM] | 2% | . | 0% | .
CC(C)(C)n1ncc2c(=O)n(CC(=O)N3CCCC3)cnc21 | 11% | 0% | . | 3% | 0% | . | 2% | .
Cc1nc2sccn2c(=O)c1Br | 7% | 1% | 1% | ? | -15% | -1.8% | -4% | -2%
CCn1c(SCC(=O)Nc2ccccc2Br)nnc1-c1cnccn1 | -2%[46.1 µM] | -17% | . | -1%[46.1 µM] | 1% | . | -7% | -4%
O=C(c1ccc2c(c1)CCN2S(=O)(=O)c1ccc(Cl)cc1)N1CCN(c2ccccc2F)CC1 | -16%[46.1 µM] | -28% | -7% | 1%[46.1 µM] | . | -1.6% | . | .
COCCN1C(=O)/C(=C/c2cc3c(cc2Br)OCO3)NC1=S | 7% | -16% | . | -8%[46.1 µM] | -2% | . | 0% | 0%
O=C(NC(=O)N1CCCc2ccccc21)c1ccccc1 | -11% | 42%[activator] | . | 4%[46.1 µM] | -3% | . | 9% | .
Cc1cc(NC(=O)CSc2nc3c(c(=O)n2-c2ccc(Br)cc2)SCC3)no1 | ? | . | -20% | -28% | -21% | -8.5% | 2% | -2%
CCCCC(CC)CNC(=O)C1CCCN(S(=O)(=O)c2cnc[nH]2)C1 (stereo not given) | . | -4% | 5% | . | -1% | 1.8% | 10% | -5%
COc1ccc(NC(=O)CN(c2ccc(C(C)C)cc2)S(=O)(=O)c2c(C)noc2C)cc1OC | 4% | ? | 17% | 27%&27% | 8% | -0.5% | 18% | -4%
O=C(OCC(CO)OC(CO)n1ccc(=O)[nH]c1=O)c1ccccc1 (stereo not given) | 17% | -7% | -3% | 21% | -5% | 12% | 2% | -12%
O=C(CSc1nc2cc(Cl)ccc2o1)c1cccs1 | ? | 42%[activator] | 1% | 11% | 17% | -2.8% | ? | -13%
CCc1c(C)sc(NC(=O)c2cccs2)c1C#N | 4% | 37%[activator] | -11% | -7% | -8% | -11% | -17% | -14%
Cc1cc(C2=NNC(=NC3CC3)SC2)c(C)n1-c1c(C)n(C)n(-c2ccccc2)c1=O | 7%&4% | 14% | 8% | -18%[46.1 µM] | -1% | -8.5% | -1% | ?
O=C(CCN1C(=O)c2ccccc2C1=O)N1CCC(c2ccccc2)C1 (stereo not given) | 3% | 38%[activator] | -7% | 2% | -1% | 2.1% | 18% | -32%
COC(=O)c1cc(S(=O)(=O)NCC2CCN(Cc3cc(C)ccc3C)CC2)c[nH]1 | 0%&20%[46.1 µM] | -21%&2% | -10% | ? | 4% | 3.4% | 6% | -12%
CCOC(=O)COc1cccc2c(=O)n(CC(=O)NCc3ccc(F)cc3)ccc12 | . | -13% | . | . | 1% | . | 0% | -5%
O=C(Cc1ccc(Br)cc1)NCCN1CCOCC1 | 3%[46.1 µM] | -15% | . | -4%[46.1 µM] | 0% | . | 3% | 4%
CS(=O)(=O)N(Cc1ccccc1)c1ccccc1C(=O)O | 4% | 5% | -3% | 0% | 1% | 5.0% | 4% | 7%
CCOc1ccc(N=Cc2c(O)n(C(C)(C)C)c(=O)[nH]c2=O)cc1 | ? | -24% | 14% | -16% | -6% | -0.2% | -10% | 18%
CCC1=NN(C(=O)c2ccc(Br)cc2)C(O)(c2ccc(C)cc2)C1 (stereo not given) | 0% | 8% | -8% | ? | 6% | -6.2% | -23% | -43%
CCOC(=O)c1nn(-c2ccccc2C)c2nc(-c3ccc(Cl)cc3)c(C#N)c(=O)n12 | 5% | -2% | ? | 9% | 0% | -1.9% | -23% | -1%
O=C(/C=C/c1ccccc1)NCCN1CCOCC1 | 15% | -5% | 2% | ? | 4% | -0.2% | 3% | 11%
Cc1ccc(NC(=O)CN2C(=O)C3C4C=CC(C4)C3C2=O)cc1 (stereo not given) | -1% | 11% | . | 3%[46.1 µM] | -3% | . | 7% | -2%
Cc1ccc(CNC(=O)CS(=O)Cc2nc(-c3cccs3)oc2C)cc1 (stereo not given) | . | 5% | -19% | . | 4% | -2.0% | -16% | ?
CCOC(=O)c1[nH]c(C)c(CCC(=O)NCc2ccccc2)c1C | -2%[46.1 µM] | -4% | 10% | . | . | 3.6% | . | .
Cc1ccc(S(=O)(=O)N2CCN(Cc3ccco3)CC2)c(C)c1 | ? | -1% | . | -19%[46.1 µM] | 2% | . | 15% | -6%
COc1ccc(-c2nc3ccccc3s2)cc1NC(=O)c1cc(OC)c(OC)c(OC)c1 | 19%[46.1 µM] | 2% | 2% | ? | . | -0.8% | . | .
O=C(c1ccccc1)N1CCCC(C(=O)N2CCCCC2)C1 (stereo not given) | . | -6% | . | . | -4% | . | 0% | 15%
COC(=O)c1cc(C(=O)c2ccc(Cl)cc2)n2c(=O)/c(=C\N(C)C)sc12 | -15%[46.1 µM] | -17% | . | -9%[46.1 µM] | 4% | . | -2% | .
O=C(Nc1ccc(Br)cc1F)C1CCCN(S(=O)(=O)c2cnc[nH]2)C1 (stereo not given) | . | 0% | 3% | 0% | 6% | 3.0% | -7% | ?
O=C(CCc1nnc(Cc2ccc(-c3ccccc3)cc2)o1)NCC1CC1 | ? | -4% | . | ? | 1% | . | -3% | 2%
Cc1ccc(C)n1-c1nnc(N2CCCC(C(=O)NCc3cccc(Br)c3)C2)s1 (stereo not given) | 0%[46.1 µM] | ? | -18% | ? | . | -13% | . | .
CC(C(=O)Nc1ccncc1)(c1ccccc1)c1ccccc1 | 7% | -3% | . | 13% | -1% | . | 0% | 1%
Cc1cccc(C)c1NC(=O)CS(=O)CC(=O)Nc1ccc(N2CCOCC2)cc1 (stereo not given) | 19%[46.1 µM] | -4% | . | -12%[46.1 µM] | 1% | . | -8% | 6%
CCC(=O)n1nc(-c2ccc(OC)cc2)nc1NCc1cccs1 | 9%[46.1 µM] | 31%[activator] | . | ? | 0% | . | -7% | .
CCOc1ccc(NC(=O)CN(C)C(=O)CCCOc2ccc(Br)cc2)cc1OCC | -20% | -24% | . | ? | -4% | . | -22% | .
Cc1csc(NC(=O)CSc2nc3ccccc3c3c2CCCC3)n1 | ? | ? | -69% | ? | -7% | -4.3% | 21% | -4%
O=C(CNC(=O)c1cccs1)OCC(=O)c1ccc(Cl)cc1 | . | 14% | . | . | 1% | . | -6% | 1%
CC(C)(CNCC(O)c1ccccc1)N1CCOCC1 (stereo not given) | 17% | -4% | 0% | -2%[46.1 µM] | 2% | 7.6% | -1% | -2%
CCOC(=O)c1cc(-c2ccccc2)n(CCCC(=O)Nc2ccc(CC)cc2)c1C | -7%[46.1 µM] | ? | 2% | . | . | -7.6% | . | .
